Bioassay records: PubChem BioAssay, several laboratories
RBBP9 inhibitor = blocks human serine hydrolase RBBP9. recombinant RBBP9, FP-Rh probe fluorescence polarization. 220,000 tested, 0.2% active. inhibition, % at 7.94 µM. AID 1515;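 active = inhibition above the campaign mean of all tested compounds plus 3 SD, cut at about 14% in these data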;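 note: plate controls were DMSO wells with RBBP9 for no effect and wells lacking RBBP9 protein for full effect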
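Material: RBBP9 protein. Amount: RBBP9 at 2.5 µM in dispensed solution, before mixing. Schedule: 30 min then 45 min, 25 °C. Medium: Tris buffer pH 8.0, NaCl, Pluronic. Measured by: fluorescence polarization. Measure: percent inhibition from mP, scaled between DMSO and no-protein wells. Replication: one well per compound.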
p47phox inh = p47phox (human) inhibition; P14598; p47phox/p22phox peptide binding, fluorescence polarization, 2 h; inhibition, % at 24.7 µM; 220,000 tested, 0.53% active;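 active = inhibition above about 30%, limit read from the data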;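 note: 0% = p47phox with labelled peptide and 100% = labelled peptide alone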
Target sequence (P14598 whole entry, looked up): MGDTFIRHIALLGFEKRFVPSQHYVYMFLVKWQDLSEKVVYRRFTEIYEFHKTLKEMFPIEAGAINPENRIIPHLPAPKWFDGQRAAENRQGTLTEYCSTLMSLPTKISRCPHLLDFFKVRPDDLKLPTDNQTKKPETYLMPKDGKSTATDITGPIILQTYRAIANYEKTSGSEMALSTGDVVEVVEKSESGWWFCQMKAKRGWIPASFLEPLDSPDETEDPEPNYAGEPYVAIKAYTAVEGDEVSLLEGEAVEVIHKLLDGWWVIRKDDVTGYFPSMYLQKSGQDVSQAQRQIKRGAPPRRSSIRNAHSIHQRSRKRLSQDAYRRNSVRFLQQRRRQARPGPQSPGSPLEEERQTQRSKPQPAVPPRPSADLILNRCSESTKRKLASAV
Calpain2 inh = inhibitors of pig calpain II. purified calpain II, fluorogenic peptide substrate, 30 min. AID 1236. inhibition, % at 16 µM. 220,000 tested, 0.37% active;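 active = inhibition above about 50%, limit read from the data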
EBV gp42 inh = inhibitors of Epstein-Barr virus glycoprotein 42 | 220,000 tested, 0.42% active | AID 1085 | Fluorescence polarization binding assay, mP read-out | inhibition, % (tested at 21.74 µM); in the data active = inhibition above about 50%
Furin inh = blocks human furin protease activity. P09958. purified furin, fluorogenic substrate cleavage. inhibition, % at 30 µM. 220,000 tested, 0.061% active; in the data active = inhibition above about 25%; note: inactives centre near -15
Tb hexokinase = T. brucei hexokinase 1 inhibition | recombinant TbHK1, G6PDH-coupled NADH A340 | inhibition, % at 10 µM | 220,000 tested, 0.11% active | AID 1430;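 active = inhibition of 50% or more in the single-dose primary screen; inactive = inhibition below 50%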
p97 ATPase inh = inhibitors of human p97 ATPase | recombinant p97 ATPase, Kinase-Glo ATP luminescence, 3 h | inhibition, % at 8 µM | 220,000 tested, 0.42% active | AID 1481; in the data active = inhibition above about 15%;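 note: 0% = DMSO vehicle and 100% = wells lacking enzyme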
* hit, by the source's call; i = inactive; [ ] = remark or other dose.

# | SMILES | RBBP9 inhibitor | p47phox inh | Calpain2 inh | EBV gp42 inh
1 | COc1cccc(CNCCc2c[nH]c3ccccc23)c1OCc1ccccc1F | 3 | -11 | -10 | -5
2 | C=CCOc1c2ccc(C(=O)NCc3ccccc3OC)cc2nn1C | -4 | -1 | -438 | -11
3 | O=C(CCCNC(=O)/C(=C\c1ccccc1F)NC(=O)c1ccccc1)OCc1ccccc1 | -5 | -13 | 4 | -4
4 | O=C(CP(=O)(c1ccccc1)c1ccccc1)Nn1cnnc1 | 2 | 13 | 7 | -22
5 | O=C(Nc1ccsc1C(=O)NC1CC1)c1ccccc1 | 4 | -1 | 20 | -10
6 | Cc1ccccc1-n1ncc2c([N+](=O)[O-])cc([N+](=O)[O-])cc21 | 1 | -3 | 4 | -16
7 | O=C(NC(Cc1c[nH]c2ccccc12)c1nnc2n1CCCCC2)c1ccccc1Cl (configuration not stated) | -3 | -11 | 6 | -26
8 | Cc1ccc(C(=O)Nc2cc3c(cc2Cl)OCCCO3)cc1 | 9 | 1 | 5 | -1
9 | CCOC(=O)/C(C#N)=C\C1=C(N2CCCC2)CC(C)(CC)OC1 (configuration not stated) | 5 | -23 | -2 | -19
10 | Cc1cccnc1NC1(C(F)(F)F)N=C(c2ccccc2)NC1=O (configuration not stated) | 5 | -24 | -10 | -6
11 | CCCN1C(=O)/C(=C/c2ccc(C)o2)SC1=Nc1ccc(OC)cc1 | -6 | -64 | -5 | -47
12 | CC(=O)N1N=C(c2ccc3nccnc3c2)CC1c1ccccc1 (configuration not stated) | 1 | -11 | 29 | -7
13 | CCCc1cc(C(N)=O)c(NC(C)=O)s1 | -5 | -15 | -11 | -19
14 | NS(=O)(=O)c1ccc(CNC(=O)/C=C/c2ccccc2)cc1 | 0 | -3 | -19 | -13
15 | CC(C)N(CCCNC(=O)C1CCN(S(=O)(=O)N2CCOCC2)CC1)Cc1ccccc1 | -10 | -13 | 3 | 24

# | Furin inh | Tb hexokinase | p97 ATPase inh
1 | -18[20 µM] | 6 | 0
2 | -18 | -4 | 2
3 | -20[20 µM] | 5 | -2
4 | -4 | 30 | 1
5 | -19[20 µM] | -5 | 4
6 | 8[20 µM] | -2 | 3
7 | -1[20 µM] | -4 | 8
8 | -18[20 µM] | -1 | 4
9 | 17[20 µM] | -2 | 3
10 | -21[20 µM] | -6 | 0
11 | -13[20 µM] | -4 | -3
12 | -35[20 µM] | -10 | 0
13 | -16[20 µM] | -5 | 0
14 | -22[20 µM] | 2 | -1
15 | 1 | 13 | -6

Part of the list above, with two lines to a compound.
The line under a structure holds: RBBP9 inhibitor | p47phox inh | Calpain2 inh | EBV gp42 inh | Furin inh | Tb hexokinase | p97 ATPase inh
6: Cc1ccccc1-n1ncc2c([N+](=O)[O-])cc([N+](=O)[O-])cc21
  1 | -3 | 4 | -16 | 8[20 µM] | -2 | 3
7: O=C(NC(Cc1c[nH]c2ccccc12)c1nnc2n1CCCCC2)c1ccccc1Cl (configuration not stated)
  -3 | -11 | 6 | -26 | -1[20 µM] | -4 | 8
8: Cc1ccc(C(=O)Nc2cc3c(cc2Cl)OCCCO3)cc1
  9 | 1 | 5 | -1 | -18[20 µM] | -1 | 4
9: CCOC(=O)/C(C#N)=C\C1=C(N2CCCC2)CC(C)(CC)OC1 (configuration not stated)
  5 | -23 | -2 | -19 | 17[20 µM] | -2 | 3
10: Cc1cccnc1NC1(C(F)(F)F)N=C(c2ccccc2)NC1=O (configuration not stated)
  5 | -24 | -10 | -6 | -21[20 µM] | -6 | 0
11: CCCN1C(=O)/C(=C/c2ccc(C)o2)SC1=Nc1ccc(OC)cc1
  -6 | -64 | -5 | -47 | -13[20 µM] | -4 | -3
12: CC(=O)N1N=C(c2ccc3nccnc3c2)CC1c1ccccc1 (configuration not stated)
  1 | -11 | 29 | -7 | -35[20 µM] | -10 | 0
13: CCCc1cc(C(N)=O)c(NC(C)=O)s1
  -5 | -15 | -11 | -19 | -16[20 µM] | -5 | 0
14: NS(=O)(=O)c1ccc(CNC(=O)/C=C/c2ccccc2)cc1
  0 | -3 | -19 | -13 | -22[20 µM] | 2 | -1
15: CC(C)N(CCCNC(=O)C1CCN(S(=O)(=O)N2CCOCC2)CC1)Cc1ccccc1
  -10 | -13 | 3 | 24 | 1 | 13 | -6

Continuation.
# | SMILES | RBBP9 inhibitor | p47phox inh | Calpain2 inh | EBV gp42 inh
16 | CC(=O)NS(=O)(=O)c1ccc(NC(=S)NC(=O)c2ccco2)cc1 | 4 | -1 | 15 | -3
17 | Cn1c(NCCN2CCOCC2)nc2c1c(=O)n(Cc1cccc(Cl)c1)c(=O)n2C | 7 | -1 | 4 | -3
18 | O=C(Nc1ccc(/C=C/c2nc3ccccc3o2)cc1)c1ccc(F)cc1 | -6 | -5 | -67 | -7
19 | N#CC1=C(N)Oc2cc(Nc3ccccc3)ccc2C1c1ccncc1 (configuration not stated) | 5 | -30 | -2 | -14
20 | CC(CC(=O)Nc1nc2ccccc2[nH]1)c1ccccc1 (configuration not stated) | -10 | -10 | 0 | -7
21 | CCOC(=O)c1cnc2cc3c(cn2c1=O)CCCC3 | -9 | 9 | i | -9
22 | Cc1ccc(S(=O)(=O)CCc2nnc(N)s2)cc1 | -4 | -9 | -7 | -6
23 | CC(=O)Nc1cc(C(=O)N2CCCC2)ccc1S(=O)(=O)c1ccc(C)cc1 | -9 | -5 | 8 | 0

# | Furin inh | Tb hexokinase | p97 ATPase inh
16 | -4[20 µM] | -8 | 5
17 | -27 | -4 | 1
18 | -18[20 µM] | -22 | -5
19 | 0[20 µM] | 3 | 20*
20 | 3[20 µM] | 1 | -6
21 | -67 | -29 | -1
22 | -3[20 µM] | 8 | -4
23 | -17 | -4 | -3

A portion of the library; count on the stated rates, not on these rows.
